High-throughput results: PubChem, Fisher Drug Discovery Resource Center
NPYLR7 agonist = agonists of mosquito NPYLR7 receptor, primary screen, cell-based, Aedes aegypti, calcium fluorescence, mosquito biting behavior; HEK293T NPYLR7/Galpha15, GCaMP6s calcium fluorescence; activation, % at 10 µM; 0.15% of 270,000 active; in the data active = activation above about 40%;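 note: 0% = vehicle and 100% = reference agonist at the receptor; some compounds past the cut are filed as inactive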
NPYLR7 agonist max-min = also measured in NPYLR7 agonist; calls as there; activation, %; measured here: Max-Min RFU normalised activation; some inactives read as strong as hits;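 span of the calcium signal over five minutes; 0% = vehicle and 100% = native peptide agonist; compound fluorescence can raise it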
Numbers without * were called inactive; & = joins results of further samples. A portion of the library; count on the stated rates, not on these rows.

item | smiles | NPYLR7 agonist | NPYLR7 agonist max-min
1 | O=C(N/N=c1\oc2cc(O)ccc2cc1-c1nc2ccccc2[nH]1)c1ccc([N+](=O)[O-])cc1 | 25 | 22
2 | O=C(NNC(=O)c1ccc2c(c1)OCCCO2)c1ccc(Cn2nnc(-c3ccccc3)n2)cc1 | 3 | 5
3 | FC(F)Oc1cccc(CNC2CCC3(CCNCC3)CC2)c1 | -2 | -2
4 | CC(C)(C)CC(C)(C)Nc1c(-c2ccccc2OC(=O)c2cccc(Cl)c2)nc2ccccn12 | 4 | 2
5 | Cc1ccc(-c2cc(O)c3c(c2)CN(C(=O)C(C)n2cccn2)CCO3)s1 (stereo not given) | -3 | -12
6 | C=CCc1cc(C)cc(C)c1OCCCCN1CCN(C)CC1 | -12 | -18
7 | O=C(/C=C/c1ccc2c(c1)OCO2)N1CC=C(c2ccc(Cl)cc2)CC1 | -7 | -10
8 | CCCn1c(=O)c2c(nc3n(CCOC)c(C)c(C)n23)n(C)c1=O | -1 | -2
9 | CCc1nccc(-c2nccn2-c2ccc(-c3ccn[nH]3)cc2)n1 | 8 | 3
10 | Clc1ccc(CSCc2cn3ccsc3n2)cc1 | 4 | 4
11 | CC(=O)N1CCc2cc(NC(=O)c3cc(S(C)(=O)=O)ccc3C)ccc21 | 5 | 1
12 | O=C(Nc1ccc(-c2noc(-c3ccco3)n2)cc1)c1ccco1 | -3 | -4
13 | COc1ccc(/C=N\N2C(=O)C3C4C=CC(CC4)C3C2=O)c(OC)c1 (stereo not given) | -8 | -13
14 | O=C(Cc1ccc(Cl)cc1)Nn1cnc2c(cnn2-c2ccc(F)cc2)c1=O | 19 | 17
15 | Cc1cc(-n2cnnc2CCn2cccn2)n(C)n1 | 0 | -1
16 | Cc1cccc(C)c1OCC(=O)Nc1cncnc1N1CCCC1 | -10 | -10
17 | Cc1ncsc1C(=O)NC(CC(=O)OC(C)C)c1ccccc1Cl (stereo not given) | 5 | 0
18 | CCCOc1ccc(C=C2N=C(c3ccccc3)OC2=O)cc1OCC | -3 | -8
19 | OCCC12CC3CC(CC(C3)C1)C2 | 1 | -2
20 | Cc1nc(CN2CCCC2Cn2ccnc2C(C)C)nc2ccccc12 (stereo not given) | -10 | -11
21 | COC(=O)c1ccc(CO[C@H]2CCC=C3C[C@@H](O)CC[C@@]32C)cc1 | 4 | 15
22 | O=C(OCc1nc(C(=O)Nc2ccc(Oc3ccccc3)cc2)cs1)c1ccccc1 | -8 | -14
23 | CC(=O)N(C)c1ccc(NC(C)c2ccc(F)c(F)c2)cc1 (stereo not given) | 7&5 | 2&3
24 | O=C(c1ccccc1C(F)(F)F)N1CCC(n2c(=O)[nH]c3ccccc32)CC1 | -5 | -12
25 | CC(C)c1nc(N2CCCCC2)c(C#N)c2c1COC(C)(C)C2 | 3 | -1

Overlap with the part before: six compounds; new compounds follow.
item | smiles | NPYLR7 agonist | NPYLR7 agonist max-min
20 | Cc1nc(CN2CCCC2Cn2ccnc2C(C)C)nc2ccccc12 (stereo not given) | -10 | -11
21 | COC(=O)c1ccc(CO[C@H]2CCC=C3C[C@@H](O)CC[C@@]32C)cc1 | 4 | 15
22 | O=C(OCc1nc(C(=O)Nc2ccc(Oc3ccccc3)cc2)cs1)c1ccccc1 | -8 | -14
23 | CC(=O)N(C)c1ccc(NC(C)c2ccc(F)c(F)c2)cc1 (stereo not given) | 7&5 | 2&3
24 | O=C(c1ccccc1C(F)(F)F)N1CCC(n2c(=O)[nH]c3ccccc32)CC1 | -5 | -12
25 | CC(C)c1nc(N2CCCCC2)c(C#N)c2c1COC(C)(C)C2 | 3 | -1
26 | C=CCNc1nc(NCCCN2CCCC2=O)c2sc(-c3ccccc3)cc2n1 | 6 | 1
27 | O=C(CCc1cn2ccccc2n1)N1C[C@H]2C[C@H](O)[C@@H](O)C[C@H]2C1 | 6 | 3
28 | C=CC1=C(C(=O)O)N2C(=O)[C@@H](NC(=O)/C(=N/OCC(=O)O)c3csc(N)n3)[C@H]2SC1 (stereo in doubt) | -4 | -11
29 | O=S(=O)(c1cccc(Cl)c1)N1CCN(C(c2ccccc2)c2ccc(Cl)cc2)CC1 (stereo not given) | 6 | 7
30 | Cn1nccc1CNC(=O)c1ccc(COc2cc(Cl)ccc2Cl)o1 | 6 | 3
31 | CO[C@H]1CN(Cc2cccc(NC(C)=O)c2)[C@H]2CC[C@@H](O)[C@@H]1C2 | 26 | 30
32 | CCCNC(=O)COc1nc2ccccc2nc1N1CCOCC1 | 3 | 0
33 | Cc1cc(C(=O)NCc2ccc(F)cc2)n2nc(-c3ccccc3)cc2n1 | 3 | 15
34 | COC(=O)c1nn(-c2cccc(C)c2)c2nnc(Cc3ccccc3)c(=O)n12 | 3 | 6
35 | CC1C(=O)N(c2ccc(Cl)cc2Cl)CCN1C(=O)c1cccs1 (stereo not given) | 0 | 4
36 | Cc1cc2c(=O)n(C)c(SCC(=O)Nc3ccc(Cl)cc3)nc2s1 | -9 | -8
37 | NC(=O)C1CCN(c2ccc3cccc(OCc4ccccc4)c3n2)CC1 | 12 | 9
38 | COCCN1C(=O)/C(=C/C=C/c2ccccc2)SC1=S | 0 | -6
39 | CC(C)(C)c1ccc2c(c1)CC(CNC(=O)c1c(F)c(F)c(F)c(F)c1F)O2 (stereo not given) | 27 | 34
40 | Cc1cc(Nc2ccc(F)cc2)n2nc(C)c(-c3ccccc3)c2n1 | 1 | -3
41 | CCOC(=O)c1cc(C#N)c(SCc2ccc(C(=O)N3C4CCC3CC(Oc3cc(C)ccc3Cl)C4)cc2)nc1C (stereo not given) | 13 | 10
42 | COCCn1c(=O)c2c(nc3n2CCCN3c2ccc(C)cc2C)n(C)c1=O | 0 | -1
43 | CCCCCCCCCc1ccc(OCCOCCOCCOCCOCCOCCOCCOCCOCCO)cc1 | -3 | -5
44 | CC(C#N)c1cccc(C(=O)N2CCN(Cc3ccc(-c4noc(-c5cccs5)n4)cc3)CC2)c1 (stereo not given) | 3 | -2
45 | CC(C)(C)Nc1nc(Cl)nc(Nc2ccc(F)cc2)n1 | 12 | 8
46 | Cc1ccc(S(=O)(=O)Nc2ccc3cn[nH]c3c2)cc1[N+](=O)[O-] | -3 | 15
47 | Cn1cnnc1C1CCN(Cc2cc3cc4c(cc3[nH]c2=O)OCO4)CC1 | 13 | 10
48 | CC(=O)c1ccc(-n2c(=O)c3ccccc3c3ccccc3c2=O)cc1 | 4 | 1
49 | CN1CCN(c2ccc3c(ccc4c5ccccc5[nH]c34)n2)CC1 | 3 | 0
50 | Cc1c(C(=O)NCc2ccccn2)sc(=O)n1Cc1ccc(-c2ccccc2)cc1 | 5 | 0

Among those listed so far, 2 contain an aryl thioether with sulfur outside any ring:
item | smiles | NPYLR7 agonist | NPYLR7 agonist max-min
36 | Cc1cc2c(=O)n(C)c(SCC(=O)Nc3ccc(Cl)cc3)nc2s1 | -9 | -8
41 | CCOC(=O)c1cc(C#N)c(SCc2ccc(C(=O)N3C4CCC3CC(Oc3cc(C)ccc3Cl)C4)cc2)nc1C (stereo not given) | 13 | 10

Carrying on.
item | smiles | NPYLR7 agonist | NPYLR7 agonist max-min
51 | CCn1c(SCC(=O)NCc2ccc3c(c2)OCO3)nnc1C1CC1 | 6 | 0
52 | COCCN(CCC#N)c1nc2cc(C)ccc2o1 | 5 | 5
53 | CC1(C(=O)Nc2cccc(Oc3ccccc3)c2)CCN1Cc1csc2ccccc12 (stereo not given) | -5 | -8
54 | CCCNC(=O)N(Cc1cccc(OCc2nc(CO)cs2)c1)Cc1ccco1 | 25 | 19
55 | CC1CN(c2cc(Oc3ccccc3)ncn2)CCN1C(=O)Cc1ccccc1 (stereo not given) | -10 | -3
56 | COCC(O)CN(CC(=O)N1CCc2sccc2C1COc1cccc(C)c1)Cc1ccco1 (stereo not given) | 0 | 3
57 | COc1ccccc1C(=O)N1CCN(C(=O)C(C)N2CCc3sccc3C2c2ccccc2C)CC1 (stereo not given) | -4 | -9
58 | Cc1ccc(NC(=O)C2(C)CCN2C(=O)C2(c3ccccc3)CC2)cc1 (stereo not given) | 5 | 4
59 | COc1ccccc1N1CCN(C(=O)c2cccc(C(=O)N3CCN(c4ccccc4OC)CC3)c2)CC1 | -2 | -8
60 | COc1ccc(S(=O)(=O)CCCC(=O)Nc2nnc(-c3cc(C)n(C)n3)o2)cc1 | -9 | -13
61 | CCn1c(CN2CCC(CO)(CCCc3ccccc3)CC2)nc2ccccc21 | 15 | 3
62 | CCC(C(=O)N1CCc2c(ncnc2N(C)C)C1)N1Cc2ccccc2C1=O (stereo not given) | 5 | -1
63 | COC(=O)c1sccc1NC(=O)Cn1nc([N+](=O)[O-])c(Br)c1C | -1 | -7
64 | CCc1ccc2occ(CC(=O)N3C[C@@H](N)C[C@H]3C(=O)NC(C)C)c2c1 | -4 | -8
65 | COc1ccc(C(=O)N2CCCC(Nc3ccc(F)cc3)C2)cc1F (stereo not given) | -2 | -2
66 | COC(=O)c1sccc1S(=O)(=O)Nc1ccc(Cl)c(S(=O)(=O)N2CCCCC2)c1 | 11 | 10
67 | COC(=O)c1cc(C2CC2)nc2c1c(C)nn2C1CCS(=O)(=O)C1 (stereo not given) | 12 | 6
68 | COc1ccc(S(=O)(=O)N2CCCCC2)cc1NC(=O)CN1CCSc2ccccc21 | 3 | -1
69 | Cc1nc(N2CCCCCC2)c2c3c(sc2n1)CCCC3 | 4 | 1
70 | c1ccc2c(c1)nc(CCc1c[nH]c3ccccc13)n1c3ccccc3nc21 | 5 | 6
71 | COc1ccccc1CN(CCc1c[nH]c2ccccc12)C(=O)CN(C(=O)c1ccccc1F)C(C)C | 22 | 22
72 | Cn1ccsc1=NC(=S)Nc1ccc2c(c1)OCCO2 | 5 | 5
73 | CCOC(=O)c1cc(-c2ccc(C)c(C)c2)n(-c2ccc(C(=O)NCCCn3ccnc3)cc2)n1 | 6 | 3
74 | O=C1C(Oc2ccc(F)cc2Cl)CCN1c1ccccc1OC(F)F (stereo not given) | -3 | -4
75 | COc1ccc(C(=O)Oc2c(S(=O)(=O)c3ccc(C)cc3)c(C)nn2C(C)(C)C)c(OC)c1 | -1 | 17

item | smiles | NPYLR7 agonist | NPYLR7 agonist max-min
76 | CSC(C)C(=O)Nc1ccc(Sc2nc(C)cs2)cc1C (stereo not given) | 2 | 0
77 | CCc1cc(=O)n(CC(N)=O)c(-n2nc(C)cc2C)n1 | 1 | -2
78 | COC[C@H]1C[C@H]2C[C@@H](Oc3ccccn3)[C@H](N3CCN(c4cccc(Cl)c4)CC3)[C@]2(O)CO1 | -1 | 6
79 | O=C1OCCN1c1cccc(NS(=O)(=O)c2cccc(Cl)c2)c1 | -4 | -6
80 | CC(=O)c1ccccc1-c1c(C)c2ccccc2[nH]c1=O | 0 | -1
81 | O=C(c1cn(CC2CCCO2)cc2c(=O)n(-c3ccccc3)nc1-2)N1CCN(C(=O)C2CC2)CC1 (stereo not given) | 9 | 8
82 | CCn1c(C2CCN(C(=O)COc3ccc(Cl)cc3)CC2)nn(C)c1=O | 14 | 10
83 | COc1cc(-c2cccc(NC(C)=O)c2)ncn1 | -7 | -7
84 | COC(=O)C1C(=N)Oc2cc(O)ccc2C1c1ccc(OCc2ccccc2C#N)cc1 (stereo not given) | 10 | 8
85 | CN1CCN(C(CNC(=O)C2CCCCC2)c2ccc3c(c2)CCN3C)CC1 (stereo not given) | 6 | 0
86 | COc1cc2c(Cl)ncnc2cc1O | 9 | 7
87 | O=C(CNS(=O)(=O)c1ccc2c(c1)OCCCO2)NC1CCSc2ccccc21 (stereo not given) | 10 | 3
88 | CC1CN(Cc2cscn2)C(C)(C)C1 (stereo not given) | 14 | 9
89 | COc1ccc(-c2ccc(C(=O)NCc3cc(=O)[nH]cn3)o2)cc1 | -2 | 8
90 | O=C1NC(=NC2CCCCC2)S/C1=C/c1cc(F)cc2c1OCOC2 | 2 | -11
91 | COC(=O)c1ccc(-c2n[nH]c(=O)c3ccccc23)cc1 | 6 | 4
92 | O=C(c1cc(-c2ccco2)nn1-c1cccc([N+](=O)[O-])c1)N1CCC(Cc2ccccc2)CC1 | -6 | -7
93 | COC(=O)c1sccc1NC(=O)CCCC(=O)O | 4 | 6
94 | Cc1nc(-n2nc(-c3cccs3)cc2NC(=O)c2cccc(Cl)c2)[nH]c(=O)c1C | 3 | 4
95 | O=C(Nc1cccc(Cc2ccccc2)c1)Nc1cccc2[nH]c([C@@H]3O[C@H](CO)[C@@H](O)[C@H]3O)nc12 | 13 | 14
96 | Cc1ccc(NC(=O)COC(=O)C(C)C)cc1S(=O)(=O)N1CCCCC1 | 1 | 1
97 | Cc1onc(-c2ccccc2Cl)c1C(=O)N1CCCC1c1ccncc1 (stereo not given) | -7 | -8
98 | CSCc1ccc(C(=O)N(C)C2CCCN(C3Cc4ccccc4C3)C2)o1 (stereo not given) | 9 | 4
99 | CC(C)CC(NC(=O)c1cnn(C)c1)c1nnc2n1CCNCC2 (stereo not given) | 5 | 3
100 | COc1ccc(CN2CCCn3cccc3C2c2ccccc2C(F)(F)F)c(OC)c1OC (stereo not given) | 25 | 30

item | smiles | NPYLR7 agonist | NPYLR7 agonist max-min
101 | CCCCn1nccc1NC(=O)CN1CCOC(Cn2cccn2)C1 (stereo not given) | -4 | -5
102 | Fc1ccccc1-c1nc2ccc(Cl)cn2c1NCc1ccccc1 | 1 | 11
103 | CCOC(=O)C1(Cc2ccccc2F)CCCN(C(=O)c2cccc3nccnc23)C1 (stereo not given) | 2 | 0
104 | COCCN1CC(C(=O)NCc2cn[nH]c2-c2ccc(Cl)cc2)CCC1=O (stereo not given) | 15 | 1
105 | O=C(c1cc(-c2ccc(O)cc2)n[nH]1)N1CCCC2(C1)C(=O)Nc1ccccc12 (stereo not given) | -2 | -2
106 | CNC(=O)c1cccc(-c2cc(C3(CNCCN(C)C)CC3)ccn2)c1 | -15 | -15
107 | O=S(=O)(NCc1cc2ccccc2[nH]1)c1ccc2c(c1)CCC2 | 9 | 3
108 | CSCC1CCN(c2cc(C(=O)N(C)c3ccccc3)ccn2)C1 (stereo not given) | 0 | -2
109 | CCOC(=O)CC(=O)Nc1sc(C(C)C)cc1C(=O)OCC | 8 | 3
110 | COCCN(CCOC)S(=O)(=O)c1ccc2c(c1)CN(C(=O)C(F)(F)F)CC2 | -4 | -6
111 | Cc1ccccc1C(=O)Nc1sc2c(c1C(=O)N1CCOCC1)CCCC2 | 3 | 0
